# Assay outcomes from PubChem.
# D2 ag: agonists of human D2 dopamine receptor (beta-arrestin). DiscoveRx PathHunter D2 beta-arrestin, luminescence, 90 min; 100% = 57 uM dopamine signal. 360,000 tested, 0.084% active. activation, % (no concentration beside the values). AID 624465. P14416; in the data active = activation above about 40%; inconclusive = about 15% to 40%; inactive = below about 15%; also: compound concentration not given in the record; the text of the record calls up to 30% inactive
# Target sequence (P14416 whole entry, looked up): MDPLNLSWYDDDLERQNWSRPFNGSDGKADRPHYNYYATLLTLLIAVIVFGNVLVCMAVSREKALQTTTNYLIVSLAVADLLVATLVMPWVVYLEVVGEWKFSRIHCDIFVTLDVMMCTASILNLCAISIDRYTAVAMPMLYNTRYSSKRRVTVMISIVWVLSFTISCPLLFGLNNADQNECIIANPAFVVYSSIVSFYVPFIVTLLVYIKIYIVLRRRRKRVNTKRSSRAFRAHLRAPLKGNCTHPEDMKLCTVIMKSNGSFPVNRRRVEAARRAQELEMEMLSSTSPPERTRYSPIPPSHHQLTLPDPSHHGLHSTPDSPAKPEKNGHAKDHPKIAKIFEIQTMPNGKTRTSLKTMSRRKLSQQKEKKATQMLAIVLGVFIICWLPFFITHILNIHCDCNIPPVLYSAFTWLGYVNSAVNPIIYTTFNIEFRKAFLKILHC
#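 DiscoveRx PathHunter D2 beta-arrestin cells (2,100/well) attached overnight, then compound-stimulated 90 min at 37 C in HBSS/10 mM HEPES/0.1% Tween-20 buffer; beta-galactosidase complementation read by luminescence after 1 h at ambient temperature. Dopamine 57 uM final (EC100) as control.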
# gsp antag: gsp mutant antagonism. gsp-mutant cells, cAMP HTRF, 30 min; control for the full effect not named in the record. Potency, µM (doses to about 76.9 µM), without a hit: top-dose activity change, negative = inhibition, hits mostly inhibitors. 340,000 tested, 0.4% active. AID 624288; active = falling curve of any shape with a large fitted effect; inconclusive = falling curve, mostly with a smaller effect; inactive = flat or rising curve; cell line not stated here;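 also: intracellular cAMP measured with PDE inhibitor Ro 20-1724 present during compound exposure; potency is read from the fitted curve at half-maximal effect; % is scaled to controls: 0 for no effect and ±100 for the full control effect; nearly all actives have a fitted effect of over 65% in size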
#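 Measurement of cellular cAMP by homogeneous time-resolved fluorescence following a 30 min compound exposure at 37C. The PDE inhibitor […] was present throughout; the assay buffer was DPBS with 0.05% BSA and 0.005% Tween 20.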
# gsp agonist: agonists of gsp mutant (McCune-Albright syndrome); gsp mutant cells, cAMP HTRF, 30 min; control for the full effect not named in the record; Potency, µM (titrated, usually from 76.9 µM), without a hit: top-dose activation (cAMP increase), usual class: activators; 340,000 tested, 0.13% active; AID 624287; active = well fitted activation curve with a large enough effect; inconclusive = small, poorly fitted or top-dose-only effect, or another doubt; inactive = no such curve, though single readings can be large or run the other way; cell line not stated here;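 also: phosphodiesterase inhibitor Ro 20-1724 added with compounds to block cAMP breakdown; potency is read from the fitted curve at half-maximal effect; nearly all actives have a fitted effect of over 60% in size; about a fifth of the inactives were tested at one dose only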
#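 Cells in DMEM/10% FBS with G418 were pretreated with compounds in DMSO plus […] (300 uM stock) for 30 min at 37C. cAMP was measured by HTRF (cAMP-d2 plus anti-cAMP antibody-K) after 30 min at room temperature.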
# PINK1 modulator: modulators of PINK1 expression | 410,000 tested, 0.2% active | PINK1 immunofluorescence, high-content cytometry, 24 h | Potency, µM (doses to about 76.6 µM), inactives show top-dose activation (PINK1 increase), most hits filed as activators; active = well fitted activation curve with a large enough effect; inconclusive = small, poorly fitted or top-dose-only effect; inactive = flat fitted curve, though single readings scatter; cell line not stated here;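 also: potency is read from the fitted curve at half-maximal effect; % of control where 0% means no effect; nearly all actives have a fitted effect of over 65% in size; a mitochondrial uncoupler was the plate control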
#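 PINK1 protein level read as immunofluorescence by microplate cytometer in a fixed, stained stable cell line after 24 h exposure to five compound concentrations, with CCCP as control.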
# Sfp PPTase inh: blocks B. subtilis Sfp PPTase activity; Q9F4F7; Biochemical Sfp PPTase activity, qHTS; Potency, µM, inactives show max response, negative = inhibition, usual class: inhibitors; 310,000 tested, 3.5% active; AID 1490; active = well fitted inhibition curve with a large enough effect; inconclusive = small, poorly fitted or top-dose-only effect, or another doubt; inactive = no such curve, though single readings can be large or run the other way;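 also: the enzyme is Sfp with the accession as filed and its product quenches rhodamine fluorescence; potency is read from the fitted curve at half-maximal effect; 0% = enzyme reaction without inhibitor and -100% = no enzyme wells; top concentration of the series not given in the record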
#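 Step 1, compound plus 15 nM Sfp-PPTase, 15 min, room temperature. Step 2, add rhodamine-CoA (5 uM) and BHQ-2-YbbR (12.5 uM). Step 3, read 525/598 nm fluorescence at 0 and 30 min.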
# ClpP mod: qHTS Assay for Activators of ClpP | purified B. subtilis ClpP, FRET peptide cleavage, 20 min | 340,000 tested, 1.9% active | Potency, µM (top dose mostly 57.5 µM), for the others: at the highest dose activity change, negative = active; active = well fitted falling curve with a large enough effect; inconclusive = small, poorly fitted or top-dose-only effect; inactive = no such curve, though single readings can be large or run the other way; also: potency is read from the fitted curve at half-maximal effect; the source files actives as falling curves though it sought activators and does not explain the sign; nearly all actives have a fitted effect of over 65% in size; many hits overshoot -100%
# Target sequence (P80244 whole entry, looked up): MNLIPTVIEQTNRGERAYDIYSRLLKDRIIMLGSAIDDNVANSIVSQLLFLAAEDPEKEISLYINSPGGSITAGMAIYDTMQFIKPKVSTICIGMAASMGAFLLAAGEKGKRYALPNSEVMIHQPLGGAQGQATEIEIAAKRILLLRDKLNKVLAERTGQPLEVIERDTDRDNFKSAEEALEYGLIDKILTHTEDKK
#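 ClpP 10 microg/mL final, pH 8 Tris/KCl buffer with BSA, glycerol, Tween-20; compound pinned in; FRET-FV substrate; RT 20 min; Ex320/Em430; ΔFRET vs ADEP 5.8 microM, DMSO, no enzyme.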
# Menin MLL FP FL: menin-MLL binding inhibition, fluorescein peptide; Fluorescence polarization, fluorescein-MLL peptide displacement from menin; FP activity change, % at 61.4 µM; 290,000 tested, under 10 active; inconclusive = falling polarisation curve, or a change in total fluorescence; inactive = total fluorescence flat and polarisation flat or rising; no compound was filed as active; the % refers to the polarisation; negative = inhibition;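 also: % of control where 0% means no effect; inhibitors lower the polarisation; unlabelled MLL peptide was the positive control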
# * hit, by the source's call; ? = inconclusive; . = not tested or not shown; & = joins results of further samples; [ ] = remark or other dose.
SMILES,D2 ag,gsp antag,gsp agonist,PINK1 modulator,Sfp PPTase inh,ClpP mod,Menin MLL FP FL
COc1ccccc1/C=C/C1NC(=O)NC(C)=C1C(=O)OC(C)C (configuration not stated),-4.2,6.1%,-5.1%[15.4 µM],3.2%,14.4%,1.9%,-1.4
Cc1ccc(-c2c(C)cc3oc(=O)cc(-c4ccccc4)c3c2C)cc1,-1.6,?,.,5.0%,-15.4%,-7.4%,-0.2[94.6 µM]
C=CCN1CCN(C(c2ccccc2)c2nnnn2CCC(C)C)CC1 (configuration not stated),-1.7,2.9%,16.5%,-0.6%,1.1%,-2.8%,-0.9
COC(=O)[C@@H]1C[C@H]2CC[C@H](O)C[C@H]2N1Cc1ccc(N2CCN(C)CC2)cc1,-3.8,7.4%,.,-0.7%,19.3%&23.9%,-1.5%,3.0&1.0
COc1cccc(CNC(=O)C2CCCN(c3nn4c(=O)cc(C)nc4s3)C2)c1 (configuration not stated),-2.4,4.6%,-63.7%[inhibitor],-1.8%,8.2%,0.2%,0.9
CCCCCCCCCCCCN1[C@@H](CC(=O)OC)c2cc(C(F)(F)F)ccc2S1(=O)=O,-0.9,5.6%,27.8%,1.6%,.,-1.3%&-1.9%,.
CCOc1ccccc1Nc1nc(N)nc(CN2CCCCC2C)n1 (configuration not stated),0.5,-1.3%,-18.4%,0.3%,-23.5%,.,-4.2
CCOc1cc(C2CC(=O)NC3=C2C(=O)C(C(=O)OC)C(C)C3)cc(Br)c1O (configuration not stated),-3.9,6.2%,-19.5%,4.9%,50.1µM*,0.3%,-3.0
Cc1cc(/C=N/NC(=O)c2c(Br)cnn2C)c(C)n1-c1cccc(Br)c1,-5.3,5.0%,8.3%,16.3%,2.5%,-17.3%,2.0
Cc1ccc(NC(=O)Cc2nc(CN(C)CC(=O)Nc3ccc(C)cc3)cs2)cc1,-4.5,2.9%,-26.0%,0.2%,.,1.9%,.
COc1ccc(-c2ccc(C(=O)Nc3cccc(C(C)=O)c3)c3occc23)c(C)c1,3.5,.,.,0.2%,.,-27.1%,.
COc1cccc(CN(CC2CCCO2)S(=O)(=O)c2ccc(S(=O)(=O)N(C)C)cc2)c1 (configuration not stated),3.9,-7.3%,-61.5%[inhibitor],1.2%[38.3 µM],5.6%,-2.5%,-1.0
Cc1cccc(NC(=O)CN2C(=O)N/C(=C/c3cc(C)n(-c4ccncc4)c3C)C2=O)c1,-4.0,0.2%,10.2%,7.4%,-2.8%,-4.8%,4.0
CCN1C(=O)c2cccc3cccc1c23,-1.2,5.2%,11.2%,1.8%[38.3 µM],15.8µM*,-2.2%,8.6
O=C(CN1CCCC1)Nc1ccc(Br)cc1,-1.6,10.8%,-44.2%[inhibitor],1.2%,50.1µM*,1.9%,-0.8
Cc1nnc(SCC(=O)Nc2ccc(Cl)cn2)s1,0.7,5.1%,19.6%,11.9%,23.5%,-0.6%,0.7
Cc1ccc2oc(C(=O)Nc3nnc(C)s3)c(C)c2c1,-2.9,6.8%,-28.5%,1.8%,-17.9%,-0.5%,1.1
O=C(CSc1nnc(CN2CCOCC2)n1-c1ccc(Cl)cc1)Nc1cc(Cl)ccc1O,0.9,-18.5%,31.4%,2.4%,2.2%,2.4%,2.4
S=C1NC(c2ccccc2)=CC(c2ccccc2)N1 (configuration not stated),-3.4,5.7%,-7.8%[15.4 µM],0.6%,2.8%,.,-2.9
COc1cc(OC)nc(Nc2nc(C(N)Cc3ccccc3)cs2)n1 (configuration not stated),-3.7,.,.,1.4%,.,-4.0%,.
Cc1ccc(NC(=O)C(c2ccc(Cl)cc2Cl)N2CCCC2)cc1 (configuration not stated),-1.3,-21.0%,-59.5%[inhibitor],?,-2.4%,1.3%,8.3
CC(C)CNS(=O)(=O)c1ccc(CCC(=O)NC2CCCCC2)cc1,-3.7,6.0%,18.7%[15.4 µM],-1.1%,.,.,.
Cc1ccc(/C(O)=C2/C(=O)C(=O)N(CCN3CCOCC3)C2c2cccs2)cc1 (configuration not stated),-4.6,-2.7%,-7.7%,-2.2%,15.8%,0.9%,3.3
O=C(N/N=C/c1cccc([N+](=O)[O-])c1)c1cc2ccccc2o1,-5.3,-3.6%,8.0%[15.4 µM],3.1%,-22.7%,.,1.8
Cc1cc(NC(=O)CSc2nnc(-c3ccc(O)cc3)o2)no1,-0.3,2.9%,10.3%,1.1%,-10.4%,0.1%,-8.0

# Continued.
SMILES,D2 ag,gsp antag,gsp agonist,PINK1 modulator,Sfp PPTase inh,ClpP mod,Menin MLL FP FL
CCOC(=O)N1CCC(N2Cc3cccc(C(=O)Nc4ccccc4OC)c3C2=O)CC1,0.5,?,-4.5%,0.4%,8.3%,0.7%,.
Cc1ccc(C)c(NC(=O)C2CC(Cl)=CCC2C(=O)O)c1 (configuration not stated),-0.8,-2.8%,19.5%,1.8%[38.3 µM],9.5%,-2.0%,1.7
COc1ccc(C(CNC(=O)CCC(=O)c2ccc(C)s2)N2CCOCC2)cc1 (configuration not stated),-2.0,-2.4%,-21.2%,-0.3%,.,0.6%,.
COc1ccc(Cl)cc1NC(=O)c1cccc(NC(=O)CCC(=O)O)c1,0.2,0.4%,-3.6%,-0.3%,-38.5%,-7.3%,-0.7
O=C(CN1CCC(n2cnc3cc(F)ccc32)CC1)Nc1ccccc1Br,-0.3,-13.2%,-26.6%,1.0%,-10.7%,-7.0%,-1.0
Cc1cc(C(=O)OCC(=O)N2CCOCC2)c2ccccc2n1,-2.5,3.7%,-0.5%,-1.5%,-22.7%,?,4.1

# Structures listed so far with an aryl methoxy group, in the order listed:
SMILES,D2 ag,gsp antag,gsp agonist,PINK1 modulator,Sfp PPTase inh,ClpP mod,Menin MLL FP FL
COc1ccccc1/C=C/C1NC(=O)NC(C)=C1C(=O)OC(C)C (configuration not stated),-4.2,6.1%,-5.1%[15.4 µM],3.2%,14.4%,1.9%,-1.4
COc1cccc(CNC(=O)C2CCCN(c3nn4c(=O)cc(C)nc4s3)C2)c1 (configuration not stated),-2.4,4.6%,-63.7%[inhibitor],-1.8%,8.2%,0.2%,0.9
COc1ccc(-c2ccc(C(=O)Nc3cccc(C(C)=O)c3)c3occc23)c(C)c1,3.5,.,.,0.2%,.,-27.1%,.
COc1cccc(CN(CC2CCCO2)S(=O)(=O)c2ccc(S(=O)(=O)N(C)C)cc2)c1 (configuration not stated),3.9,-7.3%,-61.5%[inhibitor],1.2%[38.3 µM],5.6%,-2.5%,-1.0
COc1cc(OC)nc(Nc2nc(C(N)Cc3ccccc3)cs2)n1 (configuration not stated),-3.7,.,.,1.4%,.,-4.0%,.
CCOC(=O)N1CCC(N2Cc3cccc(C(=O)Nc4ccccc4OC)c3C2=O)CC1,0.5,?,-4.5%,0.4%,8.3%,0.7%,.
COc1ccc(C(CNC(=O)CCC(=O)c2ccc(C)s2)N2CCOCC2)cc1 (configuration not stated),-2.0,-2.4%,-21.2%,-0.3%,.,0.6%,.
COc1ccc(Cl)cc1NC(=O)c1cccc(NC(=O)CCC(=O)O)c1,0.2,0.4%,-3.6%,-0.3%,-38.5%,-7.3%,-0.7

# Outcome played no part in choosing rows, and some 5.1% of all compounds hit somewhere here.
